D2 PAM = Beta-Arrestin HTS for Positive Allosteric Modulators of the Human D2 Dopamine Receptor: Potentiators. D(2) dopamine receptor (Homo sapiens), P14416. DiscoveRx D2 beta-arrestin cells, luminescence, 90 min; 100% = 57 uM dopamine signal. potentiation, % (test concentration not listed). hit rate 0.23% among 360,000. AID 624464, 2012; active = potentiation of 50% or more; inconclusive = 30% to 50%; inactive = 30% or less;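 note: compound concentration not given in the record; tested on top of an EC20 dose of dopamine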
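D2 cells co-treated with compound plus 50 nM dopamine (EC20) for 90 min at 37 deg C to detect potentiation. Beta-arrestin recruitment was read as enzyme-fragment luminescence after 1 h at ambient temperature. Full response was set by 57 uM dopamine.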
D2 ag = Beta-Arrestin HTS for Positive Allosteric Modulators of the Human D2 Dopamine Receptor: Agonists; D(2) dopamine receptor (Homo sapiens), P14416; DiscoveRx PathHunter D2 beta-arrestin, luminescence, 90 min; 100% = 57 uM dopamine signal; activation, % (concentration not given with the values); hit rate 0.084% among 360,000; in the data active = activation above about 40%; inconclusive = about 15% to 40%; inactive = below about 15%; note: compound concentration not given in the record; the text of the record calls up to 30% inactive
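Agonist mode: compounds alone added to overnight-plated D2 PathHunter cells for 90 min at 37 C, with 57 uM final dopamine (EC100) defining full response. Beta-arrestin recruitment detected by chemiluminescent reagent, read after 1 h at ambient temperature.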
TRPV1 potentiator = HTS Assay for Compounds that Act as Potentiators of the Vanilloid Receptor 1; Transient receptor potential cation channel subfamily V member 1 (Homo sapiens), Q8NER1; TRPV1-expressing cells, Fluo-8 calcium influx, capsaicin EC20 potentiation; host cell line not named in the record; control for the full effect not named in the record; potentiation, % at 8.33 µM; hit rate 0.02% among 320,000; AID 540277, 2011; active means potentiation above 80%; inconclusive means 30% to 80%; inactive means below 30%; note: 0% is about no effect
Target sequence (Q8NER1 whole entry, looked up): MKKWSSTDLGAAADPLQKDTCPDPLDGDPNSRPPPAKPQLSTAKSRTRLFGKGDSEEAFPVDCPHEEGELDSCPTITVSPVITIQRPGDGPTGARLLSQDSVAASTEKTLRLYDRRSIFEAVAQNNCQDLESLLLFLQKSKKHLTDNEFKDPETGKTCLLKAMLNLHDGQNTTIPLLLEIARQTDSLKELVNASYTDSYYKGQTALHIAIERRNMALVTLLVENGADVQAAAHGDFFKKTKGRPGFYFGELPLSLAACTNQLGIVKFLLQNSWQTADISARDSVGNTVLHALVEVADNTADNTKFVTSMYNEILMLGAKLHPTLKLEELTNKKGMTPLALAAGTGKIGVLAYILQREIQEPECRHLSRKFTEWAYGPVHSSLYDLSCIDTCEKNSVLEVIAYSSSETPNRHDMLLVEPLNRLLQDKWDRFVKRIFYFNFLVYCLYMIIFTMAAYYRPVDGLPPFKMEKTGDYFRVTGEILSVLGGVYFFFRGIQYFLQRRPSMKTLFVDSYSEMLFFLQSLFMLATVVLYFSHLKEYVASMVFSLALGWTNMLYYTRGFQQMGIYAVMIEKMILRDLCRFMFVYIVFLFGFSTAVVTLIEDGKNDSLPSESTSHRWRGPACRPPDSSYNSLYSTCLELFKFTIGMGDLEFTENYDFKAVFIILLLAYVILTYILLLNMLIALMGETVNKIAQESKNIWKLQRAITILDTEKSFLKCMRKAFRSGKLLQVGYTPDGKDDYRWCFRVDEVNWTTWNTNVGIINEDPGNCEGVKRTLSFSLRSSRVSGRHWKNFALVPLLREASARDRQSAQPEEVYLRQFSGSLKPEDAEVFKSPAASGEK
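TRPV1-expressing cells were cultured overnight at 35.5C and loaded with Fluo-8 calcium dye for 40 to 90 min at room temperature. After a 10 s baseline, compound was added and calcium influx was read kinetically for 3 min (ex 480/em 520 nm).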
CtBP-E1A inh = qHTS Assay for Inhibitors of the CtBP/E1A Interaction | CtBP / adenovirus E1A interaction (AlphaScreen) | AlphaScreen GST-E1A/His-CtBP binding, 1536-well; active compounds read low; control for the full effect not named in the record | activity change, % (concentration not given with the values) | hit rate 0.49% among 340,000 | AID 651724, 2012; in the data active means activity change below about -65%; inconclusive means about -30% to -65%; inactive means above about -30%; note: % is set by controls: 0 for no effect and ±100 for the full control effect
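GST-E1A and His-tagged CtBP (125 nM each as 5X stock) were preincubated with pin-transferred compound for 2 h at 37 °C in the dark, then glutathione donor and nickel acceptor beads were added for 1 h before AlphaScreen reading.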
PINK1 modulator = A Quantitative High throughput Screen to Identify Chemical Modulators of PINK1 Expression; PINK1 immunofluorescence, high-content cytometry, 24 h; Potency, µM (doses to about 76.6 µM), inactives show at the top dose activation (PINK1 increase), hits mostly activators; hit rate 0.2% among 410,000; active = well fitted activation curve with a large enough effect; inconclusive = small, poorly fitted or top-dose-only effect; inactive = flat fitted curve, though single readings scatter; cell line not stated here;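 note: potency is the fitted concentration of half-maximal effect; % of control where 0% means no effect; nearly all actives have a fitted effect of over 65% in size; a mitochondrial uncoupler was the plate control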
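Decision-based qHTS: stable cells, 24 h exposure to five compound concentrations, CCCP as control. Fixed cells stained for PINK1 plus nuclear, mitochondrial and cell markers, cytometer read.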
Six1-Eya2 inh = qHTS Assay for Inhibitors of the Six1/Eya2 Interaction; AlphaScreen GST-Six1/His-Eya2 binding, biochemical; active compounds read low; control for the full effect not named in the record; activity change, % (concentration not given with the values); hit rate 0.56% among 360,000; AID 651725, 2012; in the data active = activity change below about -65%; inconclusive = about -30% to -65%; inactive = above about -30%; note: % is set by controls: 0 for no effect and ±100 for the full control effect
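AlphaScreen luminescence read after one hour at 37 °C in darkness. Pin-transferred compounds met GST-Six1 and His-Eya2 protein (5X stock 250 nM/500 nM) plus glutathione donor and Ni-chelate acceptor beads (5X, 50 ug/mL).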
Sfp inh = qHTS Assay for Inhibitors of Bacillus subtilis Sfp phosphopantetheinyl transferase (PPTase); AID 1490, 2009; 4'-phosphopantetheinyl transferase ffp (Bacillus subtilis), Q9F4F7; Potency, µM, without a hit: max response, negative = inhibition, hits mostly inhibitors; hit rate 3.5% among 310,000; Biochemical Sfp PPTase activity, qHTS; active = well fitted inhibition curve with a large enough effect; inconclusive = small, poorly fitted or top-dose-only effect, or another doubt; inactive = no such curve, though single readings can be large or run the other way;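 note: the enzyme is Sfp with the accession as filed and its product quenches rhodamine fluorescence; potency is the fitted concentration of half-maximal effect; 0% = enzyme reaction without inhibitor and -100% = no enzyme wells; top concentration of the series not given in the record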
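Buffer: 50 mM Hepes-Na pH 7.6, 10 mM MgCl2, 0.01% Nonidet P-40, 0.01% BSA. Enzyme 15 nM, pre-exposed to compound 15 min; substrates then added and fluorescence change tracked over 30 min.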
Starred values were filed as active, the others as inactive; ? = inconclusive; . = not tested or not shown; & = joins results of further samples; [ ] = remark or other dose.

SMILES	D2 PAM	D2 ag	TRPV1 potentiator	CtBP-E1A inh	PINK1 modulator	Six1-Eya2 inh	Sfp inh
COc1ccc(C(=O)OCc2csc(C)n2)c(O)c1	22	1.9	-17	16	2.9%	6	6%
CC(OC(=O)CSc1ccc([N+](=O)[O-])cc1)C(=O)NCc1ccco1 (stereo not given)	-11	-2.4	3	2	0.6%	-4	.
CCCCn1nnnc1C1(C)CCC(=O)N1CCc1ccc(OC)c(OC)c1 (stereo not given)	.	.	.	7	0.6%	1	.
CCOC(=O)N1CCN(C(=O)C(CC(C)C)NC(=O)C2CCCCC2)CC1 (stereo not given)	-3	-3.2	0	10	-3.7%	-2	8%
CCOC(=O)CNC(=O)c1ccc(SCC)cc1	-15	3.7	-1	-20	0.5%	1	-5%
O=C(NC(=S)N1CCN(C/C=C/c2ccccc2)CC1)c1ccc(Cl)nc1	-5	-2.4	-1	0	2.1%	-10	24%
O=C(O)/C=C/c1cn(-c2ncc(C(F)(F)F)cc2Cl)c2ccccc12	13	-3.1	.	-10	-1.0%	2	0%
O=C(C[C@@H]1C/C=C\C[C@@H](Cc2ccc(F)cc2)C(=O)OC[C@@H]2CCCN2C1=O)NCCO	.	-1.6	.	4	0.2%	2	.
CC(C)CCOC(=O)C1C(c2ccccc2)C(C(=O)O)C1c1ccccc1 (stereo not given)	-5	3.3	1	-1	-1.2%	7	8%
Cc1ccc(CN2CCC(n3nccc3NC(=O)CCOc3ccccc3)CC2)cc1C	-30	-4.6	0	4	2.2%	-3	13%
COc1ccccc1C/C(N)=N/OC(=O)COc1ccccc1C	-3	0.6	-5	43	2.6%[38.3 µM]	33	13%
Fc1ccc(/C=N/Nc2nc3ccccc3[nH]2)cc1F	-15	-3.5	-17	-2	4.8%	-4	-20%
Cc1cc(=O)oc2n[nH]c(-c3ccccc3)c12	-20	-0.5	9	-1	-0.9%	-8	-1%
COc1ccc2oc(=O)c(C(=O)N3CCN(c4ccccc4F)CC3)cc2c1	-4	-2.1	-7	8	-0.5%	1	9%
CCc1nnc(NC(=O)c2cc(-c3ccco3)nc3ccccc23)s1	5	-7.2	18	-4	3.4%	-17	-14%
CCCn1c(C)cc(C(=O)CSc2nc3nc(C)cc(C)n3n2)c1C	-9	0.6	-17	24	4.2%	-1	-12%
COC(=O)[C@H](CCSC)NC(=O)[C@@H](Cc1cnc[nH]1)NC(=O)OCc1ccccc1	-3	-2.2	-2	0	3.6%	5	5%
Cc1cc(C)c(OCC(=O)OCC(=O)N2CCCc3ccccc32)c(C)c1	-13	-1.4	20	14	-2.0%	0	.
O=C(NNc1cc(Br)c(O)c(Br)c1)c1ccccc1	-43	-17	-3	-15	11%	-3	-56%
O=C1N/C(=C/c2ccc(N3CCOCC3)o2)C(=O)N1c1ccccc1	-39	1.7	-5	-4	?	-10	-91%
Cc1ccccc1NC(=O)C(=O)Nc1ccccc1C	-1	2.3	-7	1	-0.1%	11	21%
COc1ccc(N2CCC(CNC(=S)Nc3cc(C)ccc3C)C2)cc1 (stereo not given)	-24	-4.1	-2	.	2.4%	-69*	-3%
O=C1CCN(Cc2ccccc2)CCN1CCO	-7	-1.5	9	0	0.6%	-12	11%
COc1ccc(NC(=O)COC(=O)COc2cccc3c2OC(C)(C)C3)cc1	-4	-0.6	12	3	-0.3%	6	.

In a second layout: results already given
> CCOC(=O)N1CCN(C(=O)C(CC(C)C)NC(=O)C2CCCCC2)CC1 (stereo not given)
  D2 PAM: -3; D2 ag: -3.2; TRPV1 potentiator: 0; CtBP-E1A inh: 10; PINK1 modulator: -3.7%; Six1-Eya2 inh: -2; Sfp inh: 8%

> CCOC(=O)CNC(=O)c1ccc(SCC)cc1
  D2 PAM: -15; D2 ag: 3.7; TRPV1 potentiator: -1; CtBP-E1A inh: -20; PINK1 modulator: 0.5%; Six1-Eya2 inh: 1; Sfp inh: -5%

> COc1ccccc1C/C(N)=N/OC(=O)COc1ccccc1C
  D2 PAM: -3; D2 ag: 0.6; TRPV1 potentiator: -5; CtBP-E1A inh: 43; PINK1 modulator: 2.6%[38.3 µM]; Six1-Eya2 inh: 33; Sfp inh: 13%

> Cc1ccccc1NC(=O)C(=O)Nc1ccccc1C
  D2 PAM: -1; D2 ag: 2.3; TRPV1 potentiator: -7; CtBP-E1A inh: 1; PINK1 modulator: -0.1%; Six1-Eya2 inh: 11; Sfp inh: 21%

The listing continues.
SMILES	D2 PAM	D2 ag	TRPV1 potentiator	CtBP-E1A inh	PINK1 modulator	Six1-Eya2 inh	Sfp inh
Cn1c(=O)[nH]c(=O)c2c1ncn2CCCc1ccccc1	-1	0.7	4	10	1.1%	7	16%
O=C(NCCc1c[nH]c2ccccc12)c1ccc2[nH]c(=O)c(=O)[nH]c2c1	-9	0.0	?	1	0.1%	-15	7%
CC(C)c1c(C(=O)N/N=C/c2c[nH]c3ccccc23)nnn1-c1nonc1N	-11	8.3	11	.	-1.8%	-20	6%
CCOC(=O)CCC1(C(=O)OC)C(=O)CCCCCC=C1C(=O)OC (stereo not given)	-12	-4.6	.	-2	-0.1%	6	.
Nc1ccc(S(=O)(=O)NC2(C(F)(F)F)NC(=O)N(c3ccc(F)cc3)C2=O)cc1 (stereo not given)	0	-3.0	5	0	0.4%	20	18%
CCOc1cc(C(=S)N2CCCC2)ccc1OCc1ccccc1	-4	0.3	16	-15	0.0%	-3	15%
COc1ccc(C(CNC(=O)c2cccc(NS(=O)(=O)c3ccc(C)c(F)c3)c2)N2CCOCC2)cc1 (stereo not given)	-12	-3.3	1	2	3.4%	-9	.
Cc1nnc(SC(C)C(=O)Nc2ccc3ccccc3c2)n1C (stereo not given)	-4	1.2	-7	-4	-0.8%	5	.
Cc1c(Cl)cccc1NC(=S)N(Cc1ccco1)C(C)c1ccccn1 (stereo not given)	-13	-1.3	11	.	1.2%	0	-10%
COc1ccc(NC(=S)N2N=CCC2c2ccccc2)cc1 (stereo not given)	-2	0.8	-1	8	14%[38.3 µM]	1	11%
COc1ccc(-c2csc(/C=C/c3ccc4c(c3)OCO4)n2)cc1OC	-2	1.2	2	4	6.0%	11	-5%
O=c1[nH]cc(CCCc2ccccc2)c(=O)[nH]1	-7	-4.6	.	-4	-1.3%	0	.
CCn1c(=O)c(C(=O)NC(C)C)c(O)c2ccccc21	-6	-0.3	-5	17	-3.4%[38.3 µM]	6	3%
COc1ccc(Nc2ncc(C#N)c(N)n2)c(OC)c1	-5	-4.2	-7	2	-0.3%	-9	3%
CCn1c(CC(=O)Nc2ccccc2C)nnc1SCC(=O)NC1CCCC1	-2	0.5	-8	9	3.5%	4	25%
Cc1cc(C)n2c(Nc3ccc4c(c3)OCCO4)c(-c3ccccc3)nc2n1	9	0.1	12	-7	1.3%&-1.0%	-17	-17%
COc1ccc(CC(C)N2CCN(Cc3ccccc3)CC2)cc1OC (stereo not given)	-23	6.6	-12	-2	1.6%	5	13%
COc1ccc2cc(C(=O)c3ccccc3)c(=O)oc2c1	-6	-2.4	4	-9	-1.2%[38.3 µM]	-10	9%
COc1ccccc1NC(=O)N[C@@H](Cc1c[nH]c2ccccc12)C(=O)NN	-6	-5.3	3	-8	1.5%	-7	1%
Cc1cc(C(=O)OCC(=O)NCc2ccc(F)cc2)c2ccccc2n1	-2	2.7	-23	9	0.2%	0	.
CCCCn1c(N)c(N(CC)C(=O)c2cccc(S(=O)(=O)N3CCCc4ccccc43)c2)c(=O)[nH]c1=O	-36	-6.4	-2	5	1.2%	0	.
OC(CNCCc1ccc(Cl)cc1)COCc1ccco1 (stereo not given)	-7	1.7	-5	-4	-3.5%	5	-27%
COc1ccccc1N1CCN(S(=O)(=O)CCNC(=O)c2ccc(Br)o2)CC1	-14	0.9	4	.	-2.2%	-9	16%
CCCc1cc(=O)oc2c3c(cc(OCC(=O)NCc4ccncc4)c12)OC(C)(C)CC3	0	-2.0	14	1	2.0%	2	10%
CCOC(=O)Cn1c(=O)oc2cc(S(=O)(=O)N(C)Cc3ccccc3)ccc21	20	3.6	1	2	0.5%	4	12%
CCOC(=O)c1cc(C)sc1NC(=S)Nc1ccccc1	-24	-6.7	22	-5	2.4%	-2	?
CC(=O)N1CCCc2cc(S(=O)(=O)N3CCCC(C)C3)ccc21 (stereo not given)	-1	0.4	-3	1	0.5%	0	22%
CCOC(=O)c1sc(NC(=O)CCN2CCN(C)CC2)c(C(=O)OCC)c1C	-33	-3.2	-7	9	1.5%	2	20%
CCc1nc2c(OCC(N)=O)cccn2c1N(C)C(=O)c1cccs1	-4	-4.1	.	-2	0.9%	-4	.
Cc1ccc(NC(=O)c2sccc2C)cc1S(=O)(=O)N(C)C	-17	0.4	0	1	-0.6%	-3	7%
CS(=O)(=O)N(CC(=O)N1CCCC1)c1ccc2c(c1)OCCO2	8	-1.2	10	7	-2.1%[38.3 µM]	3	4%
O=C(O)C1[C@H]2C(=O)N(Cc3cccs3)C[C@]23C=C[C@H]1O3 (stereo not given in full)	-8	-5.8	-13	-5	-1.8%	-1	-10%
Cc1ccc2[nH]cc(CCNS(=O)(=O)c3ccc(F)cc3)c2c1	-2	0.2	8	7	2.0%	-11	21%
CCCNC(=O)CCC(=O)Nc1ncc(-c2ccc(C)cc2)n1C	-14	-0.7	2	10	1.8%	0	14%
COCC(=O)Nc1cc(C(=O)NCC(C)C)ccc1Cl	-8	-1.0	-7	-7	1.0%	4	-3%
CC(=O)Cc1nsc(NC(=O)c2ccc(COc3ccccc3Cl)o2)n1	-16	-5.3	-3	-5	0.5%	3	1%
COC(=O)C1=C(C)N(CC2CC2)C(=NCc2cc(OC)c(OC)c(OC)c2)N[C@H]1c1ccccc1	-10	-0.8	5&7	-1	-0.1%	-8	18%&-11%
COc1cc(OC)cc(C(=O)NCCCCNC(=O)c2cc(OC)cc(OC)c2)c1	-8	-0.7	.	-10	-0.5%	-1	.
COc1cccc(Cn2c(=O)oc3ccccc32)c1	-2	1.0	21	17	4.3%	1	12%
CSCCC(NC(=O)c1cc(C)oc1C)C(=O)O (stereo not given)	-11	-1.6	-1	0	.	2	-24%

Bioassay records as filed in PubChem.
